ClpP mod – qHTS Assay for Activators of ClpP; ATP-dependent Clp protease proteolytic subunit (Bacillus subtilis (strain 168)), P80244; actives 1.9% (n = 340,000); AID 651965, 2013; purified B. subtilis ClpP, FRET peptide cleavage, 20 min; Potency, µM (series often up to 57.5 µM), without a hit: top-dose activity change, negative = active; active = well fitted falling curve with a large enough effect; inconclusive = small, poorly fitted or top-dose-only effect; inactive = no such curve, though single readings can be large or run the other way; note: potency is the fitted concentration of half-maximal effect; the source files actives as falling curves though it sought activators and does not explain the sign; nearly all actives have a fitted effect of over 65% in size; many hits overshoot -100%
Target sequence (P80244 whole entry, looked up): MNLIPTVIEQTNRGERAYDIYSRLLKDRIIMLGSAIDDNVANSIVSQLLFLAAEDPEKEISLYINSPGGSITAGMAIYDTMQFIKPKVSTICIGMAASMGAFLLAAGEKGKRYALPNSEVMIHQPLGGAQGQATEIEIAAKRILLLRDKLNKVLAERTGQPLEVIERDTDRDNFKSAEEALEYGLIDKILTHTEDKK
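Purified B. subtilis ClpP, 10 microg/mL final in Tris/HCl pH8 with KCl, BSA, glycerol and Tween-20, cleaved an Abz/nitrotyrosine-quenched decapeptide. Fluorescence (ex 320, em 430) was read at 0 and 20 min at room temperature. Delta was normalized to 5.8 microM ADEP and DMSO/no-enzyme controls.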
gsp ag – qHTS for Agonist of gsp, the Etiologic Mutation Responsible for Fibrous Dysplasia/McCune-Albright Syndrome: qHTS | gsp mutant cells, cAMP HTRF, 30 min; control for the full effect not named in the record | Potency, µM (doses to about 76.9 µM), inactives show top-dose activation (cAMP increase), most hits filed as activators | actives 0.13% (n = 340,000); active = well fitted activation curve with a large enough effect; inconclusive = small, poorly fitted or top-dose-only effect, or another doubt; inactive = no such curve, though single readings can be large or run the other way; cell line not stated here;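 note: phosphodiesterase inhibitor Ro 20-1724 added with compounds to block cAMP breakdown; potency is the fitted concentration of half-maximal effect; nearly all actives have a fitted effect of over 60% in size; about a fifth of the inactives were tested at one dose only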
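Cells in DMEM/10% FBS with G418 were pretreated with compounds in DMSO plus […] (300 uM stock) for 30 min at 37C. cAMP was measured by HTRF (cAMP-d2 plus anti-cAMP antibody-K) after 30 min at room temperature.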
gsp antagonist – qHTS for Antagonists of gsp, the Etiologic Mutation Responsible for Fibrous Dysplasia/McCune-Albright Syndrome: qHTS. Potency, µM (series often up to 76.9 µM), without a hit: at the highest dose activity change, negative = inhibition, hits mostly inhibitors. AID 624288, 2012. actives 0.4% (n = 340,000). gsp-mutant cells, cAMP HTRF, 30 min; control for the full effect not named in the record; active = falling curve of any shape with a large fitted effect; inconclusive = falling curve, mostly with a smaller effect; inactive = flat or rising curve; cell line not stated here;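 note: intracellular cAMP measured with PDE inhibitor Ro 20-1724 present during compound exposure; potency is the fitted concentration of half-maximal effect; % is set by controls: 0 for no effect and ±100 for the full control effect; nearly all actives have a fitted effect of over 65% in size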
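Cells, 2000/well, grown 16–24 h in DMEM 10% FBS with 0.5 mg/ml G418, then compounds plus […] (300 uM addition stock), 30 min at 37C. cAMP read by HTRF (cAMP-d2 and anti-cAMP antibody-K in lysis buffer) after 30 min RT.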
D2 potentiator – Beta-Arrestin HTS for Positive Allosteric Modulators of the Human D2 Dopamine Receptor: Potentiators | D(2) dopamine receptor (Homo sapiens), P14416 | DiscoveRx D2 beta-arrestin cells, luminescence, 90 min; 100% = 57 uM dopamine signal | potentiation, % (no concentration beside the values) | actives 0.23% (n = 360,000); active = potentiation of 50% or more; inconclusive = 30% to 50%; inactive = 30% or less;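 note: compound concentration not given in the record; tested on top of an EC20 dose of dopamine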
Target sequence (P14416 whole entry, looked up): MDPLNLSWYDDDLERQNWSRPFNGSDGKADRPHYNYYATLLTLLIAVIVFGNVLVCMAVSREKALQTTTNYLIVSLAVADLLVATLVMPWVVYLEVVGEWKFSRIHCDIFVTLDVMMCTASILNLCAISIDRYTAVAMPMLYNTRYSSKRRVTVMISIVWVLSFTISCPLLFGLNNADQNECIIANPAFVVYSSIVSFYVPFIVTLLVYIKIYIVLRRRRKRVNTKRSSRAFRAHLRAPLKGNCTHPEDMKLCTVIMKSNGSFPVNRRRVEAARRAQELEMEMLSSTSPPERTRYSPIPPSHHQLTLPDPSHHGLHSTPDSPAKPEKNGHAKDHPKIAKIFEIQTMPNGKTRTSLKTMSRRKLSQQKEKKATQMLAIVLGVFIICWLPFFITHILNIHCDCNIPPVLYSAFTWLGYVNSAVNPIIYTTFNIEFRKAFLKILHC
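D2 cells co-treated with compound plus 50 nM dopamine (EC20) for 90 min at 37 deg C to detect potentiation. Beta-arrestin recruitment was read as enzyme-fragment luminescence after 1 h at ambient temperature. Full response was set by 57 uM dopamine.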
Menin-MLL FL inh – qHTS Assay for Inhibitors Targeting the Menin-MLL Interaction in MLL Related Leukemias: Competition With Fluorescein Labeled MLL-derived Peptide; Fluorescence polarization, fluorescein-MLL peptide displacement from menin; FP activity change, % at 61.4 µM; 290,000 tested, under 10 active; AID 1766, 2009; inconclusive = falling polarisation curve, or a change in total fluorescence; inactive = total fluorescence flat and polarisation flat or rising; no compound was filed as active; the % refers to the polarisation; negative = inhibition;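 note: % of control where 0% means no effect; inhibitors lower the polarisation; unlabelled MLL peptide was the positive control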
TRPV1 potentiator – HTS Assay for Compounds that Act as Potentiators of the Vanilloid Receptor 1; actives 0.02% (n = 320,000); Transient receptor potential cation channel subfamily V member 1 (Homo sapiens), Q8NER1; potentiation, % at 8.33 µM; TRPV1-expressing cells, Fluo-8 calcium influx, capsaicin EC20 potentiation; host cell line not named in the record; control for the full effect not named in the record; AID 540277, 2011; active means potentiation above 80%; inconclusive means 30% to 80%; inactive means below 30%; note: 0% is about no effect
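TRPV1-expressing cells were cultured overnight at 35.5C and loaded with Fluo-8 calcium dye for 40 to 90 min at room temperature. After a 10 s baseline, compound was added and calcium influx was read kinetically for 3 min (ex 480/em 520 nm).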
Sfp PPTase inh – qHTS Assay for Inhibitors of Bacillus subtilis Sfp phosphopantetheinyl transferase (PPTase) | 4'-phosphopantetheinyl transferase ffp (Bacillus subtilis), Q9F4F7 | Biochemical Sfp PPTase activity, qHTS | Potency, µM, without a hit: max response, negative = inhibition, hits mostly inhibitors | actives 3.5% (n = 310,000); active = well fitted inhibition curve with a large enough effect; inconclusive = small, poorly fitted or top-dose-only effect, or another doubt; inactive = no such curve, though single readings can be large or run the other way;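 note: the enzyme is Sfp with the accession as filed and its product quenches rhodamine fluorescence; potency is the fitted concentration of half-maximal effect; 0% = enzyme reaction without inhibitor and -100% = no enzyme wells; top concentration of the series not given in the record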
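Compounds were incubated with enzyme (final 15 nM) for 15 min at room temperature before substrate addition started the reaction. Fluorescence at 525 nm excitation, 598 nm emission was recorded immediately and after 30 minutes.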
Active calls of the source: *; ? = inconclusive; . = not tested or not shown; & = joins results of further samples; [ ] = remark or other dose.

SMILES | ClpP mod | gsp ag | gsp antagonist | D2 potentiator | Menin-MLL FL inh | TRPV1 potentiator | Sfp PPTase inh
CCC(C)(C)NC(=O)C(c1ccc(C)o1)N(C(=O)c1csnn1)c1cccc(F)c1 (stereo not given) | 1.0% | -4% | -10% | -8 | 0.3 | -18 | 16%
O=C(O)c1ccccc1NC(=S)NC(=O)c1sc2ccccc2c1Cl | 4.1% | ? | 8% | -66 | -6.6 | 0 | 45µM*
Cc1ccc(C(=O)N/C(=C\C=C\c2ccccc2)C(=O)NCc2ccco2)cc1 | . | 9%[15.4 µM] | -1% | -19 | -0.4 | 3 | -2%
Cc1cc(C)n(/N=C\c2c(O)ccc3ccccc23)c(=O)c1C(N)=O | -4.8% | -2% | 10% | 10 | 1.8 | 11 | -28%
COc1ccc(N(CC(=O)NCc2ccc3c(c2)OCO3)S(=O)(=O)c2c(C)nn(C)c2C)cc1 | -1.6% | -35%[inhibitor] | 3% | 1 | 4.4 | -5 | 1%
CCCOc1ccc(C(=O)Nc2ccc(C)cc2[N+](=O)[O-])cc1 | -1.9% | -6% | 6% | -3 | 8.8 | -2 | ?
CCCCCCSc1ccc(-c2nc3ccc(C)cn3c2NCc2ccccc2)cc1 | 3.9%&4.8% | . | 2% | -4 | . | ? | .
O=C(NCc1nc(-c2ccc(Cl)cc2)no1)c1ccco1 | . | -2% | 2% | -1 | -5.7 | -9 | 2%
O=C(COC(=O)CSc1ccc(Cl)cc1)NCCc1ccccc1 | -2.9% | ? | 9% | 8 | . | 0 | .
COCCCN1C(=O)c2ccc(C(=O)Nc3cccc(OC)c3)cc2C1=O | -0.3% | 13% | 3% | -2 | 6.7 | -13 | 17%
Cc1ccccc1NCC(=O)Nc1cc(S(=O)(=O)N2CCCCC2)ccc1C | -17% | -37%[inhibitor] | -5% | 4 | . | 5 | .
CCOC(=O)c1ccc(S(=O)(=O)N2CCN(C3CCCC3)CC2)cc1 | . | -10% | 2% | 4 | -7.0 | -3 | 18µM*
COc1ccccc1C(=O)N/N=C(\C)c1ccc(NC(=O)C2CC2)cc1 | 28µM* | -16%[15.4 µM] | 0% | -2 | -2.9 | -2 | 1%
O=C(NCCN1CCN(C(=O)c2ccc([N+](=O)[O-])cc2)CC1)C(=O)NCc1ccccc1 | 1.6% | -22% | 6% | -7 | -3.7 | -38 | 9%
O=C(O)CNc1ccc(S(=O)(=O)C(F)(F)F)cc1[N+](=O)[O-] | . | -3%[15.4 µM] | 3% | -5 | 1.7 | ? | -27%
O=C(CN1CCC(n2nnc3cc(C(F)(F)F)ccc32)CC1)Nc1ccc2c(c1)CCC2 | -4.1% | -1% | -9% | 1 | 1.0 | -1 | 14%
O=C(c1cc(C2CC2)nn1-c1ccccc1)N1CCN(c2ccc(O)cc2)CC1 | -3.5% | -39%[inhibitor] | -8% | 5 | . | -5 | .
CCN(CC)S(=O)(=O)c1cccc(-c2nnc(SCC(=O)NC)n2CCc2ccccc2)c1 | -3.9% | -20% | -3% | -4 | 1.3 | -28 | 10%
CCCCN1C[C@H](c2ccc(OC)cc2)[C@@H](CC(=O)Nc2ccc(Br)cc2)C1=O | -1.3% | -48%[inhibitor] | . | -5 | . | . | .
Cn1c(C(=O)NCCCN2CCN(c3ccccc3F)CC2)cc2c(=O)[nH]c3ccccc3c21 | 32µM* | 2% | 6% | 14 | 0.1 | 5 | 4%
C[C@H](CO)N1C[C@H](C)[C@@H](CN(C)C(=O)Nc2ccc(F)cc2)Oc2ccc(NS(C)(=O)=O)cc2C1=O | -0.3% | 1% | 5% | -4 | . | . | .
CCOC(=O)c1[nH]c2cc3c(cc2c1NC(=O)CN1CCC2(CC1)OCCO2)OCO3 | ? | 0% | 0% | -22 | -0.5 | . | 2%
Cc1ccc(S(=O)(=O)N2CCCCC2)cc1NC(=O)COC(=O)c1ccc(O)cc1 | . | -22% | -21% | -4 | -6.5 | 8 | 17%
CCCN(CCC)CCNC(=O)c1cn(C)c(=O)c2c1c1ccccc1n2C | . | -7% | -2% | -4 | 0.9 | -3 | 1%
OCCSc1nc(-c2ccccc2)nc2c1CCC2 | -0.3% | -67%[inhibitor] | -1% | -9 | 2.2 | -3 | 15%
COc1cc(C(=O)NCC(c2ccccc2)N(C)C)ccc1OCC(=O)N1CCOCC1 (stereo not given) | . | 27%[15.4 µM] | 4% | -12 | 1.5 | 19 | 20%
CCN1CCN(C(=O)NS(=O)(=O)c2ccc(C)cc2)CC1 | -0.3% | ? | 4% | 3 | -0.1 | 13 | 8%
O=C(NC1CC1)C1CCN(S(=O)(=O)c2cc(Cl)ccc2Cl)CC1 | . | -10% | 3% | 7 | 0.7 | -6 | -20%
CC1CC(C)(C)CC2(C1)NC(=O)N(CC(=O)NCCc1ccc3c(c1)OCCO3)C2=O (stereo not given) | . | 3%[15.4 µM] | . | 2 | -2.1 | 0 | 7%
CCOC(=O)c1c(NC(=O)C(=O)N/N=C(\C)c2ccc(OC)cc2)sc2c1CCCCC2 | -5.8% | 0% | 7% | -4 | -0.3 | 0 | 9%
Cn1c(SCC(=O)NNC(=O)Cc2ccccc2)nc2ccccc2c1=O | 0.1% | 0% | -3% | -15 | 2.0 | 8 | -18%
CC(C)CC(CC(C)C)=NNC(=O)c1ccc2c(c1)OCO2 | . | -3% | 4% | -3 | -5.8 | -30 | 14%
CCS(=O)(=O)NCC(c1ccco1)N1CCN(c2ccccc2)CC1 (stereo not given) | 1.3%&2.1% | 9% | 7% | -8 | 0.8 | 11 | 4%
COc1ccc(NC(=S)N(CCCN2CCCC(C)C2)Cc2cccs2)cc1 (stereo not given) | . | 7%[15.4 µM] | -8% | -23 | -4.2 | 1 | 18%
Nc1nnc2cc(F)ccc2n1 | -0.2% | -46%[inhibitor] | . | -6 | . | . | .
O=C(CN1C(=O)NC(Cc2ccccc2)C1=O)Nc1ccccc1 (stereo not given) | 1.4% | -26% | 11% | -5 | -1.6 | 18 | 24%
Cc1nc2c(o1)CCc1ccccc1C2N1CCN(C)CC1 (stereo not given) | -1.4%&0.8% | -2%[15.4 µM] | ? | -44&-32&-8 | 0.8&-1.1 | 9&5 | 20%
CC1CCN(S(=O)(=O)c2ccc3c4c2CC(=O)N4CC(C)S3)CC1 (stereo not given) | -4.3% | 18% | 8% | -20 | -15 | -3 | 2%
O=C(NC1CC1)C1=C[C@@H](c2ccccc2)C[C@@H](OCCCCO)O1 | -4.8% | . | 8% | -35 | 2.1 | 23 | 8%
COc1cc(OC)cc(C(=O)Nc2ccc(-n3cnnn3)c(C)c2)c1 | 1.0% | 8% | -2% | 4 | 2.7 | -8 | -11%
CCCCC(=O)Nc1ccc(N2CCN(S(C)(=O)=O)CC2)cc1 | 0.1% | -5% | -3% | 4 | 0.1 | -5 | 20%
COc1ccc(S(=O)(=O)N2CCOC23CCN(S(=O)(=O)c2ccc(C)cc2)CC3)cc1 | -3.1% | -1%[15.4 µM] | -13% | -7 | . | ? | .
CC(C)CNC(=O)c1cc([N+](=O)[O-])ccc1N1CCOCC1 | -4.3% | 22% | 6% | -13 | . | -4 | 1%
O=S(=O)(NC1CCCCC1N1CCN(c2ccccc2F)CC1)c1ccc(Cl)cc1 (stereo not given) | 0.6% | -2% | 1% | -31 | -2.0 | 2 | 11%
CCc1ccc(-n2c(SCc3cc(=O)n4cc(Br)ccc4n3)nc3[nH]ncc3c2=O)cc1 | . | -13%[15.4 µM] | 2% | 0 | -1.5 | 9 | -10%
Cc1ccc(OCCn2cc(Br)c(=O)[nH]c2=O)cc1 | 1.5% | -3% | -3% | -5 | 2.2 | -6 | 19%
CCCCN(C(=O)C1=NN(c2cc(C)ccc2C)C(=O)CC1)c1c(N)n(CCC)c(=O)[nH]c1=O | -1.0% | 1% | 17% | -1 | . | -9 | .
Cc1ccccc1NC(=O)N(O)C1(C#N)CCCCC1 | 32µM* | 30% | 9% | -12 | . | . | .
CCc1ccc(N2C(=O)CC(Cn3nc(C)cc3C)C2=O)cc1 (stereo not given) | 1.9% | -39%[inhibitor] | 9% | 1 | 2.3 | 10 | 25%
CC(C)(C)c1nc[nH]c(=O)c1Br | 2.0% | -7%[15.4 µM] | 13% | 5 | . | 17 | 7%
CC(C)(C)NC(=O)C(=O)NNC(=O)c1ccc(C(C)(C)C)cc1 | -2.4% | -7% | 11% | -19 | 8.3 | -12 | 14%
CCCn1c(=O)c2c(C(F)(F)F)cc(-c3cccs3)nc2n(CCC)c1=O | ? | 10% | 13% | 7 | 1.2 | 7 | 9%
CCCC1=NN(c2ccc([N+](=O)[O-])cc2)C(=O)/C1=C\N(C)C | 1.4% | 3% | -11% | -25 | 0.6 | 9 | 5%
CCOc1ccc(-c2ncncc2-c2ccccc2OC)c(O)c1 | . | -21% | -5% | 12 | -1.6 | -1 | -1%
O=C(CSc1nnc(CNC(=O)c2c(F)cccc2Cl)o1)NCc1ccccc1 | -2.3% | -24% | 14% | -9 | . | 15 | 8%
O=C(c1ccccc1)N(C(=O)c1ccccc1)N1CCCC1 | . | 16% | -2% | -5 | . | . | .
CCC(CC)C1=NN2C(=N)/C(=C/c3ccc(OC(=O)c4ccco4)cc3)C(=O)N=C2S1 | -1.7% | -5% | -27% | -4 | 12 | -6 | -2%
CCc1cccc(C)c1NC(=O)c1cc(=O)[nH]c2ccc(S(=O)(=O)N3CCOCC3)cc12 | -4.2% | -7% | 12% | 3 | . | -1 | .
Cc1cccc(NC(=O)Cc2ccc(F)cc2)c1 | -1.7% | -11% | 5% | -9 | -3.4 | -28 | 19%
Cc1cccc(-n2c(=O)[nH]c3c(C(N)=O)nc(-c4ccccc4Cl)nc32)c1 | 4.5% | ? | -6% | -8 | 2.3 | -3 | 3%

Outcome played no part in choosing rows. Share with any hit: about 5.1%.
